Ecoli rRNA inh: inhibitors of bacterial rRNA selective over humanized ribosomes. E. coli WT GFP vs humanized-ribosome RFP mutants, fluorescence, 24 h; hits give low values; DMSO median 0, no signal -100. GFP signal change (wild-type ribosome), % (no concentration beside the values). 350,000 compounds, 1.6% hits. AID 720706;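 active = significant combined selectivity score with lowered wild-type GFP, culture density cut under 30%, mutant RFP and density less affected; inactive = any of these conditions unmet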; note: one replicate is shown; some compounds called inactive have numbers as strong as hits
Ecoli rRNA inh OD600: recorded beside Ecoli rRNA inh, whose call it bears; OD600 change, %; measured here: OD600 growth;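 optical density of the mix in the first replicate; 0 = DMSO median and -100 = no signal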
Ecoli rRNA inh RFP: further read-out of Ecoli rRNA inh, marked with its call; RFP signal change, %; measured here: RFP humanized mutant strains;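 first replicate; 0 = DMSO median and -100 = no signal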
* hit, by the source's call; & = joins results of further samples.

| Ecoli rRNA inh OD600 | Ecoli rRNA inh RFP | Ecoli rRNA inh | SMILES |
| --- | --- | --- | --- |
| 15.0 | -2.2 | -0.2 | C[C@H]1CN([C@@H](C)CO)C(=O)Cc2cc(NC(=O)CCC(F)(F)F)ccc2O[C@H]1CN(C)C(=O)Nc1ccc2c(c1)OCO2 |
| -5.6 | -1.1 | 1.9 | CC(C)NC(=O)N(C)C[C@@H]1Oc2cc(-c3ccccc3)ccc2S(=O)(=O)N([C@H](C)CO)C[C@H]1C |
| -2.9 | -1.2 | -3.4 | COc1ccc(S(=O)(=O)N(C)C[C@H]2OCCCC[C@H](C)Oc3ccc(NS(=O)(=O)c4ccc(C)cc4)cc3C(=O)N([C@H](C)CO)C[C@@H]2C)cc1 |
| 1.2 | 1.0 | -4.8 | Cc1cccc(S(=O)(=O)N[C@H]2CC[C@@H](CCNC(=O)Nc3cc(F)ccc3F)O[C@H]2CO)c1 |
| 7.0 | -0.4 | 2.2 | COC(=O)[C@@]1(Cc2ccc(F)cc2)[C@H]2c3cc(C(=O)N4CCCC4)n(CCN4CCNC4=O)c3C[C@H]2CN1C(=O)c1ccccc1 |
| -14.2 | -2.9 | -9.5 | O=S(=O)(N[C@H]1CC[C@H](CCn2cc(-c3cccc(F)c3)nn2)O[C@H]1CO)c1ccc(F)cc1 |
| -1.3 | -1.5 | 0.4 | CNC[C@@H]1OCCCC[C@@H](C)Oc2ccc(NS(C)(=O)=O)cc2C(=O)N([C@@H](C)CO)C[C@@H]1C |
| 5.0&-3.0 | -0.7&0.4 | 2.7&0.7 | C[C@H]1CN([C@@H](C)CO)C(=O)CCCn2cc(nn2)CO[C@@H]1CN(C)C(=O)Nc1ccc(F)cc1 |
| 4.9 | 1.1 | -3.8 | CNC[C@@H]1Oc2ccc(NS(=O)(=O)c3cn(C)cn3)cc2CC(=O)N([C@H](C)CO)C[C@H]1C |
| -7.3 | 1.0 | -4.9 | COc1ccccc1Cc1c(-c2ccc(C)cc2)nc2ccc(Cl)cn12 |
| -0.5 | -1.6 | 2.4 | COc1ccc(CCNC(=O)c2ccc(F)c(S(=O)(=O)N3CCCCC3)c2)cc1 |
| -79.7 | -17.6 | -63.8 | Cc1nc2ccc(C(=O)NCCCn3ccnc3)cn2c1N(C)CC1CCCCC1 |
| 3.5 | -2.1 | 2.0 | O=C(C[C@H]1CC[C@@H]2[C@H](COC[C@H](O)CN2S(=O)(=O)c2ccc(Cl)cc2)O1)NCCN1CCCCC1 |
| -6.1&0.9 | -0.7&7.8 | -6.7&-5.9 | COc1ccccc1NC(=O)N1C[C@@H]2N[C@H](C1)C2c1ccc(-c2cccc(C#N)c2)cc1 (stereo partly specified) |
| 26.9 | -2.2 | 3.5 | O=C(c1cc(C2CCCCN2C(=O)OCCF)on1)N1CCOCC1 (stereo unspecified) |

Reformatted in markdown: entries from further up
| SMILES | Ecoli rRNA inh OD600 | Ecoli rRNA inh RFP | Ecoli rRNA inh |
| --- | --- | --- | --- |
| C[C@H]1CN([C@@H](C)CO)C(=O)Cc2cc(NC(=O)CCC(F)(F)F)ccc2O[C@H]1CN(C)C(=O)Nc1ccc2c(c1)OCO2 | 15.0 | -2.2 | -0.2 |
| CC(C)NC(=O)N(C)C[C@@H]1Oc2cc(-c3ccccc3)ccc2S(=O)(=O)N([C@H](C)CO)C[C@H]1C | -5.6 | -1.1 | 1.9 |
| COc1ccc(S(=O)(=O)N(C)C[C@H]2OCCCC[C@H](C)Oc3ccc(NS(=O)(=O)c4ccc(C)cc4)cc3C(=O)N([C@H](C)CO)C[C@@H]2C)cc1 | -2.9 | -1.2 | -3.4 |
| Cc1cccc(S(=O)(=O)N[C@H]2CC[C@@H](CCNC(=O)Nc3cc(F)ccc3F)O[C@H]2CO)c1 | 1.2 | 1.0 | -4.8 |
| COC(=O)[C@@]1(Cc2ccc(F)cc2)[C@H]2c3cc(C(=O)N4CCCC4)n(CCN4CCNC4=O)c3C[C@H]2CN1C(=O)c1ccccc1 | 7.0 | -0.4 | 2.2 |
| O=S(=O)(N[C@H]1CC[C@H](CCn2cc(-c3cccc(F)c3)nn2)O[C@H]1CO)c1ccc(F)cc1 | -14.2 | -2.9 | -9.5 |
| CNC[C@@H]1OCCCC[C@@H](C)Oc2ccc(NS(C)(=O)=O)cc2C(=O)N([C@@H](C)CO)C[C@@H]1C | -1.3 | -1.5 | 0.4 |
| C[C@H]1CN([C@@H](C)CO)C(=O)CCCn2cc(nn2)CO[C@@H]1CN(C)C(=O)Nc1ccc(F)cc1 | 5.0&-3.0 | -0.7&0.4 | 2.7&0.7 |
| CNC[C@@H]1Oc2ccc(NS(=O)(=O)c3cn(C)cn3)cc2CC(=O)N([C@H](C)CO)C[C@H]1C | 4.9 | 1.1 | -3.8 |
| COc1ccccc1Cc1c(-c2ccc(C)cc2)nc2ccc(Cl)cn12 | -7.3 | 1.0 | -4.9 |
| COc1ccc(CCNC(=O)c2ccc(F)c(S(=O)(=O)N3CCCCC3)c2)cc1 | -0.5 | -1.6 | 2.4 |
| Cc1nc2ccc(C(=O)NCCCn3ccnc3)cn2c1N(C)CC1CCCCC1 | -79.7 | -17.6 | -63.8 |

New compounds follow
| Ecoli rRNA inh OD600 | Ecoli rRNA inh RFP | Ecoli rRNA inh | SMILES |
| --- | --- | --- | --- |
| 1.7 | -3.2 | 3.5 | C[C@@H]1CN([C@H](C)CO)C(=O)c2cc(C3=CCCCC3)cnc2O[C@H]1CN(C)CC1CCOCC1 |
| -6.7 | 2.0 | -7.1 | C[C@H](CO)N1C[C@H](C)[C@@H](CN(C)Cc2ccc(C(=O)Nc3ccccc3N)cc2)Oc2ccc(NC(=O)Nc3ccc(F)cc3)cc2CC1=O |
| -16.7 | 4.1 | 2.3 | CCc1nc2c(OCc3ccc(Cl)cc3)cccn2c1N(C)C(=O)C1CC1 |
| 9.6 | -1.9 | 3.8 | Nc1cc2c(cc1Cl)-c1ccc(Cl)cc1C2 |
| 12.7 | -0.3 | 5.4 | C[C@@H]1CCCCO[C@@H](CN(C)S(=O)(=O)c2ccc(Cl)cc2)[C@@H](C)CN([C@H](C)CO)C(=O)c2cc(NC(=O)Nc3ccccc3)ccc2O1 |
| -76.3 | -14.8 | -56.2 | COc1cccc(C(O)c2nc(-c3ccc(C)c(C)c3)cs2)c1 (stereo unspecified) |
| 12.9 | -2.2 | -0.2 | CN(C)C(=O)c1cccc(-c2ccc3c(c2)[C@@H]2[C@@H](CCN2C(=O)C2CCOCC2)[C@H](CO)N3)c1 |
| -9.0 | 5.2 | -3.8 | COc1ccc(S(=O)(=O)N(C)C[C@H]2Oc3ccc(NC(=O)Nc4ccc(F)cc4)cc3C(=O)N([C@H](C)CO)C[C@@H]2C)cc1 |
| 4.3 | -4.8 | -1.9 | COc1ccc(NC(=O)N(C)C[C@@H]2Oc3ccc(NS(=O)(=O)c4ccc(F)cc4)cc3C(=O)N([C@H](C)CO)C[C@H]2C)cc1 |
| 1.5 | -0.3 | 0.0 | Cc1noc(C)c1NC(=O)Nc1ccc2c(c1)C(=O)N([C@H](C)CO)C[C@H](C)[C@H](CN(C)S(C)(=O)=O)OCCCC[C@H](C)O2 |
| 5.0 | -1.6 | -0.4 | O=C(CCN1CCCCC1)NCC[C@@H]1CC[C@@H](NC(=O)C2CC2)[C@H](CO)O1 |
| -46.6 | 30.7 | -16.8 | C[C@H](CO)N1C[C@H](C)[C@@H](CN(C)Cc2ccc(C(F)(F)F)cc2)Oc2ccc(NC(=O)C3CC3)cc2CC1=O |
| 6.5 | -1.4 | 0.9 | CCCNC(=O)N(C)C[C@H]1Oc2cc(C#CCOC)ccc2S(=O)(=O)N([C@H](C)CO)C[C@@H]1C |
| 7.7 | 1.6 | -2.6 | Cc1ccc(C(=O)N2c3ccccc3N=C(c3ccccc3)C2C(=O)NC(C)C)cc1 (stereo unspecified) |
| -2.8 | 6.1 | 4.0 | Cc1c(CN(C)C(=O)C2CCC(=O)N(Cc3ccccc3F)C2)[nH]c2ccccc12 (stereo unspecified) |
| 1.9 | -2.8 | -0.4 | C[C@@H]1CN([C@@H](C)CO)S(=O)(=O)c2ccc(-c3ccccc3)cc2O[C@@H]1CN(C)C |
| 3.2 | -4.6 | 3.0 | C[C@@H]1CN([C@H](C)CO)C(=O)c2cc(-c3ccccc3)cnc2O[C@H]1CN(C)C(=O)c1ccccn1 |
| 6.8 | -4.3 | 4.4 | CC(C)NC(=O)N1C[C@H]2[C@@H](c3ccccc31)[C@H](CO)N2C(=O)C1CCCC1 |
| 7.9 | 0.4 | 0.1 | C[C@@H]1CN([C@H](C)CO)C(=O)c2cccc(N(C)C)c2O[C@H]1CN(C)Cc1ccc(-c2ccccc2)cc1 |
| 4.0 | -4.0 | 2.8 | O=C(C[C@H]1CC[C@H](NC(=O)C2CCC2)[C@H](CO)O1)NCCCN1CCOCC1 |
| 1.8 | -1.5 | -2.9 | CCCC#Cc1cnc2c(c1)C(=O)N([C@@H](C)CO)C[C@@H](C)[C@H](CN(C)Cc1ccncc1)O2 |
| -4.3 | 3.6 | -4.8 | COc1ccc(-c2cn(CC[C@H]3CC[C@@H](NC(=O)Nc4ccc(F)cc4)[C@H](CO)O3)nn2)cc1 |
| 5.9 | 3.5 | 2.4 | Cc1ccc(S(=O)(=O)N(C)C[C@@H]2OCCCC[C@H](C)Oc3ccc(NC(=O)Nc4ccc(F)cc4)cc3C(=O)N([C@H](C)CO)C[C@@H]2C)cc1 |
| 6.6 | 1.1 | 4.0 | CCCC(=O)Nc1ccc2c(c1)C(=O)N(C)[C@H]1CC[C@H](CC(=O)NCc3ccccc3F)O[C@H]1CO2 |
| 16.6 | -8.1 | 4.7 | CCN1C(=O)[C@@H]2[C@@H]3CN(S(=O)(=O)c4ccc(C)cc4)[C@@H](c4cccc5ccccc45)[C@@H]3C(=O)C[C@@H]2C1=O |
| 8.4 | 3.0 | 19.2 | COc1cc(CC(=O)Nc2c(-c3ccccc3)[nH][nH]c2=O)cc(OC)c1 |
| -6.7 | 1.0 | 1.9 | C[C@H](O)C#Cc1cnc2c(c1)C(=O)N([C@H](C)CO)C[C@@H](C)[C@H](CN(C)Cc1cccc(F)c1)O2 |
| 5.7 | -1.7 | 2.7 | C[C@@H]1CN([C@H](C)CO)C(=O)c2cc(NS(=O)(=O)c3ccc(Cl)cc3)ccc2O[C@@H](C)CCCCO[C@H]1CN(C)S(=O)(=O)c1ccc(F)cc1 |
| 2.3 | -1.9 | -5.1 | COc1ccc(S(=O)(=O)Nc2ccc3c(c2)C(=O)N([C@@H](C)CO)C[C@H](C)[C@H](CN(C)C(=O)Nc2ccc(C(F)(F)F)cc2)OCCCC[C@@H](C)O3)cc1 |
| -4.0 | -2.5 | 2.4 | CCC(=O)N1C[C@H]2[C@@H](c3ccccc31)[C@@H](CO)N2Cc1ccccc1OC |
| 9.6&16.1 | -2.1&-4.6 | 7.4&2.7 | COc1ccccc1-c1cnc2c(c1)C(=O)N([C@@H](C)CO)C[C@@H](C)[C@@H](CN(C)C(C)=O)O2 |
| 3.7 | 0.4 | 3.2 | C[C@@H]1CN([C@H](C)CO)C(=O)c2cc(-c3ccccc3F)cnc2O[C@@H]1CN(C)C(=O)CN(C)C |
| -1.2 | -0.9 | 1.3 | CC(C)C#Cc1cnc2c(c1)C(=O)N([C@H](C)CO)C[C@H](C)[C@@H](CN(C)C(=O)c1ccccc1F)O2 |
| 7.7 | -1.5 | 0.6 | O=C(C[C@@H]1C=C[C@@H](NS(=O)(=O)c2ccccc2)[C@@H](CO)O1)N1CCN(c2ccccc2)CC1 |
| -0.3 | -1.5 | 5.0 | COc1ccccc1-c1cnc2c(c1)C(=O)N([C@@H](C)CO)C[C@@H](C)[C@@H](CN(C)C(=O)c1cccnc1)O2 |
| -5.4 | -1.6 | -2.2 | C[C@H]1CN([C@@H](C)CO)C(=O)c2cccc(NC(=O)Nc3ccc(C(F)(F)F)cc3)c2O[C@@H]1CN(C)S(=O)(=O)c1cn(C)cn1 |
| 0.8 | -1.3 | 2.0 | CO[C@@H]1CN(C)C(=O)c2cc(NC(=O)C3CC3)ccc2OC[C@H](C)NC[C@@H]1C |
| -66.6 | 11.9 | -20.1 | CC(C)n1ncc2c(C(=O)N3CCN(Cc4cccs4)CC3)cc(C3CC3)nc21 |
| 0.4 | -0.3 | -2.6 | CC(C)NC(=O)N1C[C@H]2[C@@H](c3ccccc31)[C@@H](CO)N2Cc1ccccc1 |
| 15.2 | 2.5 | -0.9 | COc1ccc2c3c(n(C)c2c1)[C@H](CO)NCC31CCN(C(=O)c2cccc(F)c2)CC1 |
| 1.2 | 2.9 | -3.1 | C[C@@H]1CCCCO[C@@H](CN(C)Cc2ccncc2)[C@@H](C)CN([C@@H](C)CO)C(=O)c2cc(NC(=O)Nc3cccc4ccccc34)ccc2O1 |
| 0.6 | -0.2 | -1.7 | Cc1cc(C(=O)Nc2ccc3c(c2)C(=O)N(C)[C@H]2CC[C@@H](CC(=O)NCC(F)(F)F)O[C@H]2CO3)no1 |
| -6.3 | 7.1 | 2.5 | C[C@@H]1CN([C@H](C)CO)C(=O)c2cc(NC(=O)c3ccccc3)ccc2O[C@@H](C)CCCCO[C@H]1CN(C)Cc1ccc(C(F)(F)F)cc1 |
| -7.2 | -1.5 | -4.0 | CO[C@@H]1CN(C)C(=O)c2ccc(NC(=O)C3CC3)cc2OC[C@H](C)N(Cc2nccs2)C[C@H]1C |
| 7.9 | 1.6 | 6.9 | C[C@@H]1CN([C@@H](C)CO)C(=O)c2cc(NC(=O)Nc3ccc(C(F)(F)F)cc3)ccc2O[C@H]1CN(C)Cc1ccc(Cl)c(Cl)c1 |

Bioassay records: PubChem, Broad Institute

A portion of the library, so the mix of outcomes need not match the whole.
